TRPML1 inh: inhibitors of human TRPML1 channel; Q9GZU1; TRPML1-inducible cells, Ca2+ dye fluorescence, FDSS; hits give low values; inhibition of EC80 agonist-evoked calcium signal; activity change, negative = inhibition, % (no concentration beside the values); actives 0.02% (n = 390,000); AID 624415; in the data active means activity change below about -50%; inconclusive means about -30% to -50%; inactive means above about -30%;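 also: stimulus is agonist 54-4 at its EC80 concentration; % is scaled to controls: 0 for no effect and ±100 for the full control effect; compound concentration not given in the record; the text of the record puts the active cut at -80%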
Target sequence (Q9GZU1 whole entry, looked up): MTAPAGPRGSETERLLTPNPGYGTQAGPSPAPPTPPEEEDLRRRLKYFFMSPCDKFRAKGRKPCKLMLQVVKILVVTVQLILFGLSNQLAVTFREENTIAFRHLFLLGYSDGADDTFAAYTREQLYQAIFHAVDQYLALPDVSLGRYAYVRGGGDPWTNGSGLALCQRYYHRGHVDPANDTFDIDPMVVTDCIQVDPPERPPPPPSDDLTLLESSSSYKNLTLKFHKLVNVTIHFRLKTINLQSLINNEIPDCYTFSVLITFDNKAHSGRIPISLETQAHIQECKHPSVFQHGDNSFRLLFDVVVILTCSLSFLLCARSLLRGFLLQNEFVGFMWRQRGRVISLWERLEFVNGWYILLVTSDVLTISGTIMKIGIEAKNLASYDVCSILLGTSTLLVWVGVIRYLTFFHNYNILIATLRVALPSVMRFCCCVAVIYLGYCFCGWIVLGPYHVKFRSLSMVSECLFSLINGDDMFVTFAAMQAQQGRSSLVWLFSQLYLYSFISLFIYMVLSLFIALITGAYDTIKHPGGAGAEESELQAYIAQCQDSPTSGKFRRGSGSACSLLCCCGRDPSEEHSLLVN
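Calcium fluorescence in TRPML1-DL cells induced overnight with Tet: a 110 s read after compound pin addition, then a 110 s antagonist read after challenge with 54-4 at 4 uM final (EC80).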
ClpP mod: qHTS Assay for Activators of ClpP; Potency, µM (highest dose often 57.5 µM), for the others: at the highest dose activity change, negative = active; purified B. subtilis ClpP, FRET peptide cleavage, 20 min; AID 651965, 2013; ATP-dependent Clp protease proteolytic subunit (Bacillus subtilis (strain 168)), P80244; actives 1.9% (n = 340,000); active = well fitted falling curve with a large enough effect; inconclusive = small, poorly fitted or top-dose-only effect; inactive = no such curve, though single readings can be large or run the other way; also: potency is read from the fitted curve at half-maximal effect; the source files actives as falling curves though it sought activators and does not explain the sign; nearly all actives have a fitted effect of over 65% in size; many hits overshoot -100%
Target sequence (P80244 whole entry, looked up): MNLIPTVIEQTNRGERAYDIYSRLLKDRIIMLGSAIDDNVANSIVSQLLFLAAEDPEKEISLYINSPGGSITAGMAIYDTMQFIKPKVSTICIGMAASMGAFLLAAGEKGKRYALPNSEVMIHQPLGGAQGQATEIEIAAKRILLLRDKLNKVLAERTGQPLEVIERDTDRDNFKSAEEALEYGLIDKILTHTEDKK
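Purified B. subtilis ClpP, 10 microg/mL final in Tris/HCl pH8 with KCl, BSA, glycerol and Tween-20, cleaved an Abz/nitrotyrosine-quenched decapeptide. Fluorescence (ex 320, em 430) was read at 0 and 20 min at room temperature. Delta was normalized to 5.8 microM ADEP and DMSO/no-enzyme controls.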
Menin MLL FP FL: menin-MLL binding inhibition, fluorescein peptide; Fluorescence polarization, fluorescein-MLL peptide displacement from menin; FP activity change, % at 61.4 µM; 290,000 tested, under 10 active; inconclusive = falling polarisation curve, or a change in total fluorescence; inactive = total fluorescence flat and polarisation flat or rising; no compound was filed as active; the % refers to the polarisation; negative = inhibition;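 also: % of control where 0% means no effect; inhibitors lower the polarisation; unlabelled MLL peptide was the positive control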
gsp agonist: agonists of gsp mutant (McCune-Albright syndrome); AID 624287; Potency, µM (doses to about 76.9 µM), without a hit: at the highest dose activation (cAMP increase), usual class: activators; gsp mutant cells, cAMP HTRF, 30 min; control for the full effect not named in the record; actives 0.13% (n = 340,000); active = well fitted activation curve with a large enough effect; inconclusive = small, poorly fitted or top-dose-only effect, or another doubt; inactive = no such curve, though single readings can be large or run the other way; cell line not stated here;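 also: phosphodiesterase inhibitor Ro 20-1724 added with compounds to block cAMP breakdown; potency is read from the fitted curve at half-maximal effect; nearly all actives have a fitted effect of over 60% in size; about a fifth of the inactives were tested at one dose only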
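Cells stably selected in G418 were plated at 2000/well, grown 16-24 hr, then given compounds in DMSO with the PDE inhibitor […] (300 uM solution added) for 30 min at 37C; cAMP was read by HTRF.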
TRPML1 ag: agonists of human TRPML1 channel | TRPML1-expressing cells, Ca2+ dye fluorescence, FDSS; host cell line not named in the record; reference of the full effect not given here | activation, % (concentration not given with the values) | actives 0.12% (n = 410,000) | AID 624414; in the data active = activation above about 50%; inconclusive = about 30% to 50%; inactive = below about 30%; also: 0% is about no effect; the text of the record puts the active cut at 80%
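Calcium fluorescence on an FDSS kinetic reader gave the read-out. Tet-induced TRPML1-DL cells were plated overnight, dye-loaded (Ca8 with quencher, 45-90 min, room temperature, dark), then read 110 s after compound addition, and again 110 s after 4uM final 54-4 (EC80).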
gsp antag: antagonizes gsp, the McCune-Albright syndrome mutation. actives 0.4% (n = 340,000). gsp-mutant cells, cAMP HTRF, 30 min; control for the full effect not named in the record. Potency, µM (titrated, usually from 76.9 µM), for the others: top-dose activity change, negative = inhibition, actives largely listed as inhibitors; active = falling curve of any shape with a large fitted effect; inconclusive = falling curve, mostly with a smaller effect; inactive = flat or rising curve; cell line not stated here;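 also: intracellular cAMP measured with PDE inhibitor Ro 20-1724 present during compound exposure; potency is read from the fitted curve at half-maximal effect; % is scaled to controls: 0 for no effect and ±100 for the full control effect; nearly all actives have a fitted effect of over 65% in size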
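G418-selected cells were plated in DMEM/10% FBS for 16-24 h at 37C, then treated with compounds plus the PDE inhibitor […] (300 uM solution added) for 30 min at 37C. Intracellular cAMP was measured by HTRF after 30 min lysis at room temperature.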
* = called active by the depositor; ? = inconclusive; / = no result given; & = joins results of further samples; [ ] = another dose, or the depositor's remark.

Start of the listing, in advance (4 entries):
#	Compound	TRPML1 inh	ClpP mod	Menin MLL FP FL
1	O=C(O)CNS(=O)(=O)c1ccc2c3c(cccc13)C(=O)N2	-14	-1.1%	-0.4
2	CCCCc1c(O)nc(SCC(=O)N2CCOCC2)n(-c2ccccc2C)c1=O	-9	0.7%	0.1
3	C=C(C(=O)Oc1c(C(C)(C)C)cccc1C(C)(C)C)c1ccccc1	-5	-0.8%	/
4	CCOC(=O)CCC(=O)c1c(C)oc2ccc(OC)cc12	5	-3.7%	-1.0

#	gsp agonist	TRPML1 ag	gsp antag
1	13%[15.4 µM]	0.0	12%
2	-6%	-0.2	-3%
3	/	-1.2	4%
4	-7%	0.9	-7%

The listing, from the start:
#	Compound	TRPML1 inh	ClpP mod	Menin MLL FP FL
1	O=C(O)CNS(=O)(=O)c1ccc2c3c(cccc13)C(=O)N2	-14	-1.1%	-0.4
2	CCCCc1c(O)nc(SCC(=O)N2CCOCC2)n(-c2ccccc2C)c1=O	-9	0.7%	0.1
3	C=C(C(=O)Oc1c(C(C)(C)C)cccc1C(C)(C)C)c1ccccc1	-5	-0.8%	/
4	CCOC(=O)CCC(=O)c1c(C)oc2ccc(OC)cc12	5	-3.7%	-1.0
5	CCOc1cc(C2c3c(-c4ccccc4O)n[nH]c3C(=O)N2CCc2ccccc2)ccc1O (centres undefined)	-18	-0.8%	/
6	CCc1ccc(-n2c(C)cc(/C=N/NC(=O)c3ccncc3)c2C)cc1	5	0.7%	3.5
7	Cc1nnc(NC(=O)CCn2cnc3ccccc3c2=O)s1	14	0.7%	1.3
8	Cc1ccc(Oc2ncnc(N)c2[N+](=O)[O-])cc1	0	/	0.5
9	O=C(c1cccc(N2C(=O)C3CC=CCC3C2=O)c1)N1CCCCCC1 (centres undefined)	-22	-1.2%	2.0
10	CC(NC(=O)CN(C)Cc1ccc(Br)cc1)c1ccccc1 (centres undefined)	12	-0.4%	-0.5

#	gsp agonist	TRPML1 ag	gsp antag
1	13%[15.4 µM]	0.0	12%
2	-6%	-0.2	-3%
3	/	-1.2	4%
4	-7%	0.9	-7%
5	/	2.6	/
6	-11%	1.0	-14%
7	6%[15.4 µM]	0.8	5%
8	-12%[15.4 µM]	1.6	-5%
9	1%	1.3	4%
10	-36%[inhibitor]	2.3	2%

Later entries
#	Compound	TRPML1 inh	ClpP mod	Menin MLL FP FL
11	Cc1cccc(C)c1NC(=O)C(=O)NCC(c1ccc2c(c1)OCO2)N1CCN(C)CC1 (centres undefined)	6	1.3%	/
12	Fc1ccc(-c2nnn3c2nc(NCc2ccccc2)c2ccccc23)cc1	-6&12	-2.3%	2.4
13	O=C(COC(=O)c1cnccn1)c1ccc(Br)cc1	26	-1.0%	1.9
14	O=C(O)c1ccc(/C=N/Nc2ccc(S(=O)(=O)N3CCCC3)cc2[N+](=O)[O-])cc1	8	/	-0.1
15	COc1cc(OC)cc(C(=O)Nc2ccc(S(=O)(=O)N3CCOCC3)cc2)c1	-4	1.3%	-3.1
16	COc1ccc(CN(C)C(=O)C2CSC3(C)CCC(=O)N23)c(OC)c1 (centres undefined)	4	1.6%	/
17	COc1ccc(NC2CCCN(C(=O)c3ccc(CSC)o3)C2)cc1OC (centres undefined)	-14	-0.2%	1.6
18	CN(CC(=O)NC1CC(C)(C)NC(C)(C)C1)S(=O)(=O)c1cc(Cl)ccc1Cl	16	/	-2.6
19	CC(C)CNC(=O)c1[nH]c(C(F)(F)F)nc1-c1ccccc1	-17	1.6%	/
20	COc1ccc(-c2cc(C(=O)O)n(Cc3ccccc3)n2)cc1	17	-12%	/

#	gsp agonist	TRPML1 ag	gsp antag
11	/	-0.2	/
12	-13%[15.4 µM]	0.6&-0.9	19%
13	9%	-0.6	6%
14	23%[15.4 µM]	-1.0	-13%
15	11%	1.4	-5%
16	-45%[inhibitor]	-0.3	/
17	2%	-1.1	0%
18	-30%[inhibitor]	-0.1	6%
19	/	0.0	/
20	/	0.2	/

(cont.)
#	Compound	TRPML1 inh	ClpP mod	Menin MLL FP FL
21	Cn1c(CSCc2ccc(Cl)c(Cl)c2)n[nH]c1=S	1	-2.6%	-1.8
22	CCn1c2c(c(=O)n3ncc(C(=O)N4CCN(c5ccccc5)CC4)c13)CN(Cc1ccc(OC)cc1)CC2	-18	-4.7%	/
23	Cc1ccc(OCCNC(=O)c2ccc(NC(=O)CC3SC(N4CCCC4)=NC3=O)cc2)cc1 (centres undefined)	-8	0.7%	/
24	O=C(c1cccc(S(=O)(=O)Nc2ccccc2Cl)c1)N1CCCCCC1	18	-2.3%	/
25	Cc1ccc(S(=O)(=O)Nc2ccc3nc(-c4cccn4C)[nH]c3c2)cc1	29	1.0%	5.5
26	CCCc1cc(=O)oc2c(C)c(OCC(=O)N3CCC(C(=O)O)(c4ccccc4)CC3)ccc12	/	4.3%	6.3
27	COc1cccc(/C=C2\SC(=S)N(CC(=O)N(C)C3CCS(=O)(=O)C3)C2=O)c1 (centres undefined)	-13	-4.7%	-1.5
28	CCOC(=O)c1c(C)nc2c(c1-c1ccc(OC)cc1)C(=O)CC(C)(C)C2	-1	-0.1%	3.7
29	Cc1ccccc1N(Cc1ccccc1F)S(C)(=O)=O	0	-2.2%	2.2
30	CCN(Cc1ccccc1)C(=O)CCS(=O)(=O)c1cc(Br)cc2c1N(C(=O)C1CC1)CC2	29	-0.1%	/

#	gsp agonist	TRPML1 ag	gsp antag
21	10%[15.4 µM]	-0.8	-7%
22	/	2.2	/
23	5%[15.4 µM]	2.0	-9%
24	6%	-0.9	-5%
25	-4%[15.4 µM]	0.3	-6%
26	/	/	-23%
27	-41%[inhibitor]	-0.5	-8%
28	0%	0.5	-3%
29	-4%	2.6	2%
30	/	0.4	/

Remaining list, next part:
#	Compound	TRPML1 inh	ClpP mod	Menin MLL FP FL
31	C[C@]12c3[nH]c4cc(-c5ccco5)ccc4c3CCN1C(=O)[C@@H](CC(=O)NCCc1ccccn1)C[C@@H]2C(=O)N1CCCCC1	-8	4.2%	/
32	COc1cc(OC)c2c(-c3cccc(-c4ccc(C#N)cc4)c3)cc(=O)oc2c1	13	?	-1.6
33	Cc1cccc(N(C)C(=O)Cn2cnc3nc4c(cc3c2=O)CCCC4)c1	-15	-2.9%	/
34	CC(=O)c1cccc(NC(=O)c2sc3nc4c(cc3c2N)CCCC4)c1	-7	-1.6%	/
35	Cc1nc(C(=O)Nc2ccc(Cl)cc2)sc1C1(C)CC(c2cccc([N+](=O)[O-])c2)=NO1 (centres undefined)	0	-1.2%	/
36	NC(=O)c1ccc(N2CCCCC2)c(N2C(=O)CCC2=O)c1	15	0.3%	-0.3
37	COc1cccc(/C=C/c2nc(C#N)c(NCCc3ccc(OC)c(OC)c3)o2)c1	-7	3.6%	/
38	O=C(CSCc1nc2c(nnn2Cc2ccc(F)cc2)c(=O)[nH]1)Nc1cccc(C(F)(F)F)c1	-3	1.0%	-9.0
39	O=C(CSc1ccc(-c2ccccc2)nn1)NC1CCCC1	-21	-1.4%	1.9
40	COc1ccc(NC(=O)c2cc(S(=O)(=O)N3CCc4ccccc43)cn2C)cc1OC	-5	-2.5%	-0.3

#	gsp agonist	TRPML1 ag	gsp antag
31	/	-0.4	-11%
32	/	-0.1	13%
33	/	0.5	/
34	/	-1.0	/
35	?	-0.5	8%
36	-15%	-0.6	-16%
37	/	-0.1	/
38	-10%[15.4 µM]	-1.0	-15%
39	?	1.4	5%
40	-19%	1.0	-2%

(listing goes on)
#	Compound	TRPML1 inh	ClpP mod	Menin MLL FP FL
41	Cc1ccccc1NC(=O)c1c(NC(=O)C(F)(F)F)sc2c1CCCCC2	-2	0.4%	/
42	COc1cccc(NC(=O)N2CCC(NC(=O)C(Cc3cccc(C)c3)NC(C)=O)CC2)c1 (centres undefined)	-4	1.2%	/
43	Cn1c(N)cc(=O)n(C)c1=S	33	-4.7%	/
44	CCOC(=O)c1oc2cc(O)c(CC)cc2c(=O)c1-c1ccc2c(c1)OCCO2	21	0.5%	8.2
45	CC(Oc1ccccc1)C(=O)OCc1cc(=O)n2nc(C(C)C)sc2n1 (centres undefined)	-21	-2.3%	/
46	CC1CCCCN1c1cc(C#N)c(C#N)cc1[N+](=O)[O-] (centres undefined)	-5	0.0%	0.3
47	CC(C)CN(Cc1cc(=O)oc2cc(-c3ccccc3)c(O)cc12)CC(C)C	/	-5.7%	1.2
48	Cn1nnnc1SCC(=O)N1CCOCC1	-3	-1.9%	1.5
49	Cc1cc(=O)[nH]c(SCc2nc3ccccc3n2Cc2ccccc2)n1	5	-7.9%	-0.1
50	COc1ccc(-c2cccc(NS(=O)(=O)c3ccccc3[N+](=O)[O-])c2)nn1	-9	/	/
51	Cc1ccc(-c2nc(NC(=O)c3ccc(S(=O)(=O)N(CCC#N)CCC#N)cc3)sc2-c2ccccc2)cc1	5	1.0%	4.6

#	gsp agonist	TRPML1 ag	gsp antag
41	/	0.0	/
42	?	1.1	7%
43	-3%[15.4 µM]	0.8	6%
44	-24%	1.2	?
45	/	-1.2	/
46	-14%	0.1	-4%
47	15%	/	7%
48	0%	0.3	4%
49	10%	-0.4	-19%
50	22%[15.4 µM]	1.0	-17%
51	9%	0.5	3%

Another view of some results above:
3: C=C(C(=O)Oc1c(C(C)(C)C)cccc1C(C)(C)C)c1ccccc1
  TRPML1 inh: -5
  ClpP mod: -0.8%
  Menin MLL FP FL: /
  gsp agonist: /
  TRPML1 ag: -1.2
  gsp antag: 4%

4: CCOC(=O)CCC(=O)c1c(C)oc2ccc(OC)cc12
  TRPML1 inh: 5
  ClpP mod: -3.7%
  Menin MLL FP FL: -1.0
  gsp agonist: -7%
  TRPML1 ag: 0.9
  gsp antag: -7%

5: CCOc1cc(C2c3c(-c4ccccc4O)n[nH]c3C(=O)N2CCc2ccccc2)ccc1O (centres undefined)
  TRPML1 inh: -18
  ClpP mod: -0.8%
  Menin MLL FP FL: /
  gsp agonist: /
  TRPML1 ag: 2.6
  gsp antag: /

6: CCc1ccc(-n2c(C)cc(/C=N/NC(=O)c3ccncc3)c2C)cc1
  TRPML1 inh: 5
  ClpP mod: 0.7%
  Menin MLL FP FL: 3.5
  gsp agonist: -11%
  TRPML1 ag: 1.0
  gsp antag: -14%
